Wnt bcat act: Wnt/beta-catenin pathway activation; Wnt/beta-catenin reporter cell assay, activator, plate reader; activation, % at 9.35 µM; 300,000 compounds, 1.2% hits; AID 743398; in the data active = activation above about 30%, passing the limit was not always enough;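 also: 0% = neutral control wells and 100% = positive control wells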
dFosB activator: mouse delta FosB homodimer activation; P13346; 340,000 compounds, 0.99% hits; activation, % at 25 µM; AID 493131; purified delta FosB, TAMRA-CDK5 oligo fluorescence polarization; percent of positive-control signal above neutral wells;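 active = mean activation above about 17%, with every replicate also reaching it, limit read from the data, passing the limit was not always enough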;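 also: fluorescence polarization rise as delta FosB binds a TAMRA Cdk5 AP-1 oligo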
NSD2 HMT inh: inhibitors of human histone methyltransferase NSD2; 310,000 compounds, 0.54% hits; inhibition, % at 12.5 µM; NSD2 peptide methylation, AlphaScreen, 120 min; in the data active = inhibition above about 50%
Target sequence (O96028 whole entry, looked up): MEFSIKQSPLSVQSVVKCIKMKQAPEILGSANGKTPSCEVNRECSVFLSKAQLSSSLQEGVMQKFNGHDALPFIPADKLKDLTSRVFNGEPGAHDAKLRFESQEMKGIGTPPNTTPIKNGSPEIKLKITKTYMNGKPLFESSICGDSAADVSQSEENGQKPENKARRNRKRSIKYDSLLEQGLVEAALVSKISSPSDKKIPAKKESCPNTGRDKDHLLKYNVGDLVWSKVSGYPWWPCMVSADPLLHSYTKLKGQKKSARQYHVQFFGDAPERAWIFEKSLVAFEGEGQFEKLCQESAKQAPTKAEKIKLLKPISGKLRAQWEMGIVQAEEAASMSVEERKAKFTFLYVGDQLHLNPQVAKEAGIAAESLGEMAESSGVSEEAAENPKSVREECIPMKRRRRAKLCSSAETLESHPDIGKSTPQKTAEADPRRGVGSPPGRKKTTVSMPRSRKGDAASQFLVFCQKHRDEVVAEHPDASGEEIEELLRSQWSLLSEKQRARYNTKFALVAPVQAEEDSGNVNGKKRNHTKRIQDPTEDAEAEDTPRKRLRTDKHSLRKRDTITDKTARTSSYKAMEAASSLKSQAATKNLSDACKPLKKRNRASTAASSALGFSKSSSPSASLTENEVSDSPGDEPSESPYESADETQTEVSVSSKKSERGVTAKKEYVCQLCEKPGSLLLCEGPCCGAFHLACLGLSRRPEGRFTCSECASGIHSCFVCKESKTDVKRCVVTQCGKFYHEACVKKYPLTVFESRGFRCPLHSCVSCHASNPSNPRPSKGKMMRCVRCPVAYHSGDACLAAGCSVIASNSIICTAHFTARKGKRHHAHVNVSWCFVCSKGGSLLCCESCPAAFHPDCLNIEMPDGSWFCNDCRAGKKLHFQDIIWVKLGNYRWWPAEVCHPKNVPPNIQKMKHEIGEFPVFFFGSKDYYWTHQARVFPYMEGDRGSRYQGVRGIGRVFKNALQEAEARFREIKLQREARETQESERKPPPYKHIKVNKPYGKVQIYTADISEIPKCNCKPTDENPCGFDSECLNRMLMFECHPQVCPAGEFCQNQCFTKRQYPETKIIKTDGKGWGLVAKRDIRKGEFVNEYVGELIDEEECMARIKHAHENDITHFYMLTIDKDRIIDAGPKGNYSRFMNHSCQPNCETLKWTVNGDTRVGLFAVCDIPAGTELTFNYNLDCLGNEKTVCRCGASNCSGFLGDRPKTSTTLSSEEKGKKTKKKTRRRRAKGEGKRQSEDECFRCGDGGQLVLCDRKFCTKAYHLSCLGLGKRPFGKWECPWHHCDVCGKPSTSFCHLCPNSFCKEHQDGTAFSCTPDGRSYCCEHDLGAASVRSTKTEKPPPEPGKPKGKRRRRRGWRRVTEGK
V-ATPase pH: alters yeast V-ATPase proton transport; AID 504577; 350,000 compounds, 0.37% hits; S. cerevisiae, pHLuorin cytosolic pH fluorescence; response, % at 10 µM; in the data active = response mostly above about 7.3%, no sharp cut-off; inactive = mostly below about 5.4%; also: actives read high; inactives centre near 0; some compounds called inactive have numbers as strong as hits; reference of the scale not given here
PvdQ inh: P. aeruginosa PvdQ acylase inhibition. purified PvdQ acylase, fluorescence plate reader. inhibition, % at 10 µM. 340,000 compounds, 0.063% hits. AID 488965; in the data active = inhibition above about 30%, passing the limit was not always enough;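 also: 0% = vehicle neutral wells and 100% = reference inhibitor wells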
MITF TRPM1 HTS: activators of MITF-driven TRPM1 promoter activity in SK-MEL-5 cells; 300,000 compounds, 0.75% hits; SK-MEL-5 TRPM1-promoter luciferase, 24 h; % of positive control, neutral wells = 0; activation, % at 12.5 µM;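 active = mean activation of at least 80% with every replicate also reaching 80%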;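 also: 0% = neutral control wells and 100% = parthenolide positive control wells; values of inactives mirror those of a sister screen read the other way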
An asterisk follows results filed as active; / = no result given; & = joins results of further samples. A portion of the library. The share of hits here may be higher or lower than overall.

#	molecule	Wnt bcat act	dFosB activator	NSD2 HMT inh
1	CCN1/C(=C/C(C)=O)Sc2ccc(OC)cc21	/	-6	1
2	COc1ccc(CCN2CCC(Nc3nc4ccccc4n3Cc3ccc(F)cc3)CC2)cc1	-9	1	/
3	N#CC(=Cc1ccc(O)cc1)C(N)=C(C#N)C#N	-1	0	/
4	Nc1ncnc2c1ncn2[C@@H]1O[C@H](COP(=O)(O)OP(=O)(O)OP(=O)(O)O)[C@@H](O)[C@H]1O	-1	-4	/
5	O=c1n(CCCN2CCN(c3cccc(Cl)c3)CC2)nc2ccccn12	6&-5	-7	/
6	CC(C)n1cnc2c(Nc3cccc(F)c3)nc(NCCO)nc21	17	1	/
7	CN1CCc2cccc3c2[C@H]1Cc1ccc(O)c(O)c1-3	-1&0	14&4&3	/
8	Cc1cc2ncc(-c3ccccc3)nc2cc1C	45*	-17	0
9	Nc1ncnc2c1cnn2-c1ccccc1	/	-11	0
10	CC(C)N(CCC(=O)c1ccc2ccccc2c1)Cc1ccccc1	3	-4	/
11	Nc1nc2c(ncn2COCCO)c(=O)[nH]1	-4	0	/
12	NC1C2CN(c3nc4c(cc3F)c(=O)c(C(=O)O)cn4-c3ccc(F)cc3F)CC12 (stereo not drawn)	/	-7	/

#	V-ATPase pH	PvdQ inh	MITF TRPM1 HTS
1	-3	-5	-25
2	3	-6&2	-96
3	0	9	4
4	0	-9	7
5	3	2	5
6	4	-4	2
7	1&5&2	1&1&-14	0&11&-1
8	1	-4	37
9	-1	-3	14
10	5	4	-1
11	11	-10	-4
12	-1	20	-7

Entries of single compounds as entered above. Screens in order: Wnt bcat act, dFosB activator, NSD2 HMT inh, V-ATPase pH, PvdQ inh, MITF TRPM1 HTS
Nc1ncnc2c1cnn2-c1ccccc1 in the list: /, -11, 0, -1, -3, 14
Nc1nc2c(ncn2COCCO)c(=O)[nH]1 in the list: -4, 0, /, 11, -10, -4
Nc1ncnc2c1ncn2[C@@H]1O[C@H](COP(=O)(O)OP(=O)(O)OP(=O)(O)O)[C@@H](O)[C@H]1O in the list: -1, -4, /, 0, -9, 7

Three of the entries above in order of their number in PvdQ inh, smallest number first.
entry	Compound	PvdQ inh
4	Nc1ncnc2c1ncn2[C@@H]1O[C@H](COP(=O)(O)OP(=O)(O)OP(=O)(O)O)[C@@H](O)[C@H]1O	-9
9	Nc1ncnc2c1cnn2-c1ccccc1	-3
5	O=c1n(CCCN2CCN(c3cccc(Cl)c3)CC2)nc2ccccn12	2

(further entries)
#	molecule	Wnt bcat act	dFosB activator	NSD2 HMT inh
13	CN([C@@H](Cc1ccc(OS(=O)(=O)c2cccc3cnccc23)cc1)C(=O)N1CCN(c2ccccc2)CC1)S(=O)(=O)c1cccc2cnccc12	/	21*	/
14	Cc1nnc(SCC2=C(C(=O)O)N3C(=O)C(NC(=O)Cn4cnnn4)C3SC2)s1 (stereo not drawn)	-1	-1	/
15	CCOC(=O)[C@H](CCc1ccccc1)N[C@H]1CCc2ccccc2N(CC(=O)O)C1=O	-7	-7	/
16	CN1CCc2cccc3c2[C@@H]1Cc1ccc(O)c(O)c1-3	-2	5	/
17	CN(C)CCCN1c2ccccc2Sc2ccc(Cl)cc21	-3&-3&-4	2&8	/
18	COc1ccc(CCN(C)CCCC(C#N)(c2ccc(OC)c(OC)c2)C(C)C)cc1OC (stereo not drawn)	-6	-2	/
19	CC(C)[C@H](CO)Nc1nc(NCc2ccc(S(N)(=O)=O)cc2)c2ncn(C(C)C)c2n1	-2	-9	/
20	CN(C)CCOC(c1ccccc1)c1ccccc1 (tested in a mixture with another compound)	-3	2	/
21	N#C/C(=C\c1ccc(O)c(O)c1)C(=O)NCc1ccccc1	-4	-2	/
22	CCN(CC)CCNC(=O)c1ccc(N)cc1	-1	-1	/
23	CC(C)n1cnc2c(Nc3cccc(Cl)c3)nc(NCCCO)nc21	5	-4	/
24	O=C(Nc1ccc2[nH]ncc2c1)c1cccc(F)c1	-3	5	-8

#	V-ATPase pH	PvdQ inh	MITF TRPM1 HTS
13	0	-10	6
14	-1	-7	-9
15	-5	-3	6
16	-3	-14	-18
17	3&10	-10&7	18&18
18	-1	-11	-13
19	-2	0	-20
20	8	-6	-2
21	-3	-3	4
22	-3	7	-2
23	-3	-10	-30
24	-1	-3	/

Random excerpt: 3 records from the list.
#	molecule	Wnt bcat act	dFosB activator	NSD2 HMT inh
14	Cc1nnc(SCC2=C(C(=O)O)N3C(=O)C(NC(=O)Cn4cnnn4)C3SC2)s1 (stereo not drawn)	-1	-1	/
9	Nc1ncnc2c1cnn2-c1ccccc1	/	-11	0
24	O=C(Nc1ccc2[nH]ncc2c1)c1cccc(F)c1	-3	5	-8

#	V-ATPase pH	PvdQ inh	MITF TRPM1 HTS
14	-1	-7	-9
9	-1	-3	14
24	-1	-3	/
